Screening data (PubChem BioAssay)
GALR2 agonist = activates the human galanin receptor 2; O43603; GALR2-expressing cells, agonist activation read-out; activation, %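 (tested at 5 µM)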; 140,000 tested, 0.48% active;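 active = above mean plus 3 SD of all compounds, about 5% in these data, not always enough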;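 also: 0% = vehicle buffer wells and 100% = reference agonist at full effect; tested in CHO reporter cells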
Target sequence (O43603 whole entry, looked up): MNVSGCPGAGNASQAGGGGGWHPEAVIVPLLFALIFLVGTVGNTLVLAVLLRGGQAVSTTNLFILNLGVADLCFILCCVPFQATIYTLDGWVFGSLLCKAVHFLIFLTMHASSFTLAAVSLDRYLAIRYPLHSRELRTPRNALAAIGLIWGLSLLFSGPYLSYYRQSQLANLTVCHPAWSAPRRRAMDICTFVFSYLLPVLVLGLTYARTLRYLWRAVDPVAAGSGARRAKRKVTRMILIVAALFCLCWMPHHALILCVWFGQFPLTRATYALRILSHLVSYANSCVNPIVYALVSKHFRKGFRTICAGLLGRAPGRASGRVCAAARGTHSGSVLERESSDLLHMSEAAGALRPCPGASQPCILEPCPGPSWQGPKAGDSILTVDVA
RGS16-Gao HTS = modulates binding between human RGS16 and Galphao | O15492+P09471 | bead-based flow cytometry RGS16-Galphao binding, fluorescence; actives lie on both sides | binding response (% of control), % at 10 µM | 220,000 tested, 0.38% active | AID 1441;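 active = below 25% or above 175%, edge rows of some plates excepted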;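 also: Galphao activated by GDP with aluminum fluoride before binding; 100% = wells without compound and 0% = beads without RGS; some results beyond the cut were filed as inactive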
Target sequence (O15492 whole entry, looked up): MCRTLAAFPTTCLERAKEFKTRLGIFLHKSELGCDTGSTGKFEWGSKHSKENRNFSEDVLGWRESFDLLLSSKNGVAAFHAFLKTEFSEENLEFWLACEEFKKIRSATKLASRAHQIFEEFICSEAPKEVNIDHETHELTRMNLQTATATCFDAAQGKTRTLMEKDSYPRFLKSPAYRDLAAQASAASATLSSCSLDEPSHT
Target sequence (P09471 whole entry, looked up): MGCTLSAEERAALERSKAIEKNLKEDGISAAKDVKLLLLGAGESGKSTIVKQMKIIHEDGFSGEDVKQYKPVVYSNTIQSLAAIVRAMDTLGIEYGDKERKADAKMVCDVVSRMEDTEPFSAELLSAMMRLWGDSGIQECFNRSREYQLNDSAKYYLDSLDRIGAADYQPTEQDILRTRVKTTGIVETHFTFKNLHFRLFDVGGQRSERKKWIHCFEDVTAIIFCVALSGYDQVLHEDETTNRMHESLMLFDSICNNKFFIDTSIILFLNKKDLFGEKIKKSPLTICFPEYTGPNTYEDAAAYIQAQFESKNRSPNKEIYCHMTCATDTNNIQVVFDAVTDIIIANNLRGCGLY
PKD1 inh = blocks activity of human protein kinase D1. PKD1 kinase fluorescence polarization assay. inhibition, %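 (about 10 µM by stock and volumes)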. 200,000 tested, 0.056% active. AID 797;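 active = inhibition of 50% or more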;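 also: controls were vehicle for no effect and a reference inhibitor for full effect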
HSV augment = HSV replication enhancement; HSV replication augmentation in cells, fold increase; maximum fold increase; 220,000 tested, 0.005% active; AID 1956;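 active = peak rise of 1.5-fold or more in the series; inconclusive = self-fluorescent or not available for retest; tested in PC3 cells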;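 also: first round at 10 µM; read as green reporter fluorescence; hits show the peak of a series up to 25 µM; 1 = signal of infected wells without compound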
Insulin prom inh = TRM-6 insulin promoter activity inhibition | TRM-6 cells (human fetal islet line), insulin promoter-eGFP reporter, imaging; reporter expression induced with tamoxifen | inhibition, % at 2 µM | 130,000 tested, 0.9% active | AID 1273;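 active = inhibition above the mean plus 3 SD, with well images judged a real hit on visual review, cut at about 60% in these data, passing the limit was not always enough; inconclusive = inhibition over the cutoff but images rejected on review; inactive = inhibition not above the cutoff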
Insulin prom inh cell count = second read-out of Insulin prom inh, no call of its own (marks repeat the call); normalized cell count, %; measured here: cell count, toxicity; reference of the scale not given here;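 cells exposed to compound for 48 h; stained nuclei by imaging scaled within each plate; lower means fewer cells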
HSV augment primary fold = recorded beside HSV augment, whose call it bears; fold increase; compound at 10 µM; measured here: primary screen fold increase 10 uM; tested in PC3 cells;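 GFP signal in the first replicate; 1 = infected wells without compound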
The depositor's hits bear a star; i = inactive; ? = inconclusive; · = not tested or not shown. This is a subset. The share of hits here may be higher or lower than overall.

cpd | SMILES | GALR2 agonist | RGS16-Gao HTS | PKD1 inh | HSV augment | HSV augment primary fold | Insulin prom inh | Insulin prom inh cell count
1 | Cc1c(C=C2C(=O)NC(=O)NC2=O)c(=O)n(-c2ccccc2)n1C | · | 26 | -2 | i | 1 | 40 | 92
2 | O=[N+]([O-])c1ccc(N2CCOCC2)c2cccnc12 | · | 97 | 2 | i | 0.92 | 17 | 122
3 | COc1ccc(NP(=O)(Oc2cccc(C)c2)Oc2cccc(C)c2)cc1OC | · | 91 | · | i | 0.92 | · | ·
4 | CN1CCCC(C(=O)c2ccc(Cl)cc2)C1 (stereo not drawn) | · | 95 | 0 | i | 0.97 | · | ·
5 | CC12CC[C@H]3[C@@H](CCC4(O)C[C@H](O)CCC34/C=N/NC(=O)c3ccc(O)cc3)C1(O)CCC2C1=CC(=O)OC1 (stereo partly drawn) | · | 101 | · | i | 0.96 | · | ·
6 | Cc1cccc(-n2c(O)c(/C=C/C=Nc3ccccc3)c(=O)[nH]c2=O)c1 | 0.9 | 109 | -22 | ? | · | 6 | 130
7 | CCOP(=S)(OCC)N1CCOCCOCCN(P(=S)(OCC)OCC)CCOCCOCC1 | · | 86 | -1 | i | 0.8 | 28 | 71
8 | O=c1[nH]c(O)c(N=Nc2ccc(S(=O)(=O)N3CCOCC3)cc2)c(=O)[nH]1 | · | 97 | 6 | i | 0.9 | 22 | 134
9 | Cc1ccc(N2C(=O)NC(=O)/C(=C/c3ccc(-c4ccc(C(=O)O)c(Cl)c4)o3)C2=O)cc1 | · | 100 | -6 | i | 1 | -20 | 123
10 | CC(=O)c1cccc(OCC(O)CN2CC=C(c3ccccc3)CC2)c1 (stereo not drawn) | -1.5 | 107 | -2 | i | 0.57 | 0 | 144
11 | CC(C)=CCSc1nnc([C@@H](N)Cc2c[nH]c3ccccc23)o1 | -2.0 | 100 | -3 | i | 0.96 | 19 | 102
12 | CC(C)OP(=O)(OC(C)C)C(O)c1ccc(Br)cc1 (stereo not drawn) | -0.4 | 104 | -7 | i | 0.84 | -53 | 98
13 | Cc1nc2ccccc2c(=O)n1-c1ccc(F)cc1F | · | 91 | · | i | 1 | · | ·
14 | O=c1cccc2n1CC1CC2CN(S(=O)(=O)c2ccccc2)C1 (stereo not drawn) | -2.2 | 101 | 2 | i | 0.96 | -26 | 62
15 | CCN1CCC(O)(c2ccccc2)C(C(=O)c2ccccc2)C1 (stereo not drawn) | -3.4 | · | -2 | i | 0.97 | 51 | 91
16 | C=C1N2CCC(CC2)C1(O)c1ccccc1C (stereo not drawn) | -2.9 | 99 | -3 | i | 0.96 | · | ·
17 | C[C@H]1CCC[C@H](O)CCCCCc2cc(O)cc(O)c2C(=O)O1 | -2.0 | 101 | -4 | i | 1.1 | · | ·
18 | CC/C(=N\N1CCCCCC1)c1c(O)n(-c2ccccc2C)c(=O)[nH]c1=O | -0.6 | 96 | -10 | i | 0.99 | 13 | 88
19 | O=C1NC(=O)N(Cc2ccco2)C(=O)/C1=C/c1cccn1CCOc1ccccc1Cl | -0.6 | 141 | -8 | · | · | · | ·
20 | CCCCn1c(O)c(/C=N/N2CCCCC2c2cccnc2)c(=O)[nH]c1=S (stereo not drawn) | 0.5 | 106 | -6 | i | 0.97 | · | ·
21 | CN(C)c1nc(OCCNC(=O)COc2ccc(Cl)cc2Cl)nc(N2CCCCC2)n1 | -3.1 | 98 | -3 | i | 0.97 | -4 | 110
22 | CC(C)(C)N(NC(=O)c1ccccc1)C(=O)c1ccccc1 | -0.3 | 108 | 3 | i | 0.97 | -25 | 126
23 | O=[As](O)(O)c1ccc(N=Nc2ccc(O)cc2)cc1 | · | 107 | · | i | 0.89 | · | ·
24 | CCn1nc(/C=C/c2ccccc2)nc2c(=O)n(C)c(=O)nc1-2 | · | 101 | -8 | i | 0.64 | 54 | 70
25 | Cc1ccc(NC(=O)c2cc(-c3ccccc3)n(CCCN3CCOCC3)c2C)cc1 | · | 99 | · | i | 0.96 | · | ·
26 | COCCN1C(=O)NC(=O)/C(=C\c2ccc(F)cc2)C1=O | · | 99 | -1 | i | 0.99 | -54 | 102
27 | CC(=O)Nc1ccc(N=Cc2c(O)n(Cc3ccco3)c(=O)[nH]c2=O)cc1 | · | 92 | · | i | 0.67 | · | ·
28 | O=C(N/N=C/c1c(O)n(-c2ccccc2)c(=O)[nH]c1=O)c1ccncc1 | -0.8 | 108 | 6 | i | 1.1 | -6 | 71
29 | CC(=O)N1N=C2C3CCN(CC3)C2C1c1ccc(F)cc1 (stereo not drawn) | · | 103 | -4 | i | 1.1 | 21 | 133
30 | O=C1/C(=C\c2ccc([N+](=O)[O-])cc2)N2CCC1CC2 | -2.1 | 104 | -19 | i | 0.93 | 40 | 97
31 | Cc1c2cnn(CC(=O)N3CCC4(CC3)OCCO4)c(=O)c2c(C)n1Cc1ccc(F)cc1 | -1.6 | 93 | -12 | i | 1 | 38 | 95
32 | O=C(O)c1ccccc1N=Nc1c(O)[nH]c(=O)[nH]c1=O | · | 101 | · | i | 1.2 | · | ·
33 | O=C1CCCN1c1ccc(S(=O)(=O)O)cc1 (tested in a mixture with another compound) | -0.4 | 108 | -4 | i | 0.84 | 20 | 120
34 | CC1(C)CC(n2[nH]c(=O)c3c2NC(=O)CSC3c2ccccc2)CCO1 (stereo not drawn) | -3.3 | 105 | 1 | i | 1 | 43 | 134
35 | C1=C(c2c[nH]c3ccccc23)CCN(Cc2ccccc2)C1 | · | 100 | -7 | i | 0.94 | -27 | 64
36 | COc1cc(C(CN)CC(=O)O)ccc1O (stereo not drawn) | · | 110 | · | i | 1.1 | · | ·
37 | Cc1ccc(S(=O)(=O)N2CCCC(C(=O)N3CCC4(CC3)OCCO4)C2)cc1 (stereo not drawn) | -1.3 | 87 | -7 | i | 1.2 | · | ·
38 | NC(N)=N/N=C/c1ccc(N2CCOCC2)cc1 | · | 91 | -1 | i | 0.9 | 24 | 91
39 | CN1CCC2(CC1)NC(=O)C1=C(CN(C)CC1)N2 | -0.9 | 97 | 4 | i | 0.95 | · | ·
40 | CCN1C(=O)C(=Cc2cc(C)n(C3CC3)c2C)C(=O)N(CC)C1=S | -1.4 | 138 | -7 | i | 1.3 | -14 | 98
41 | O=C(Nc1cccc(OC(=O)N2CCCCC2)c1)N1CCOCC1 | · | 102 | -5 | i | 0.92 | 27 | 58
42 | Fc1ccc2c(c1)nnn2C1CCN(Cc2nnnn2CCc2ccccc2)CC1 | -0.5 | 32 | 3 | i | 0.92 | -17 | 132
43 | COc1ccc2c(c1OC)C(=O)OC2c1c(O)n(C2CCCCC2)c(=O)[nH]c1=O (stereo not drawn) | -3.7 | 104 | 0 | i | 1 | 41 | 118
44 | CCOC(=O)c1c(C)n(C(C)C)c2ccc(OC)cc12 | · | 96 | · | i | 0.85 | · | ·
45 | CCN(CC)C(=O)c1ccc(NC(=O)c2ccc(-c3nn(C)c(=O)c4ccccc34)cc2)cc1 | · | 91 | 0 | i | 1 | · | ·
46 | CC(C)[N+](C)(CCC(C(N)=O)(c1ccccc1)c1ccccc1)C(C)C | · | 104 | · | i | 0.82 | · | ·
47 | N#Cc1ccccc1Cn1cc(C(=O)c2ccco2)c2ccccc21 | -0.4 | 46 | 0 | i | 1 | -45 | 130
48 | CNC(=O)Oc1ccc(N(C)C)cc1C(C)C | · | 106 | · | i | 1.2 | · | ·
49 | c1ccc(CCN2CCC(N3CCN(c4ccccc4)CC3)CC2)cc1 | -1.6 | 103 | -1 | i | 0.9 | 22 | 116
50 | CCN(CC)c1ccc(/C=C/[N+](=O)[O-])cc1 | · | 105 | -3 | i | 1.1 | 0 | 116
51 | Cc1cc(OCCN2CC2)c2ccccc2n1 | · | 102 | · | i | 0.88 | · | ·
52 | CCOc1cc(CNCCc2c[nH]c3ccccc23)cc(Cl)c1OCC | 0.8 | 36 | -5 | i | 0.87 | -36 | 105
53 | Clc1cccc(C2NCCc3[nH]cnc32)c1 (stereo not drawn) | -1.6 | 99 | 0 | i | 0.92 | 5 | 113
54 | CN(C)c1ccc(/C=C2\CC3C4CC=C5CC(O)CCC5(C)C4CCC3(C)C2=O)cc1 (stereo not drawn) | -0.3 | 115 | 4 | i | 0.99 | -25 | 115
55 | COc1ccc(Oc2cc(NC(=O)c3nn(C)cc3[N+](=O)[O-])cc([N+](=O)[O-])c2)cc1 | 5.2 | 93 | -7 | i | 0.43 | -35 | 16
56 | CCOc1ccc(-n2c(CC)nc3ccccc3c2=O)cc1 | -0.4 | 104 | -10 | i | 0.9 | · | ·
57 | Cc1ccccc1CN1CCN(c2ccc(Cl)cc2)CC1 | 0.5 | 108 | 6 | i | 1.1 | -107 | 43
58 | Cc1ccc2nsnc2c1-n1c(C)nc2ccccc2c1=O | 0.1 | 61 | -6 | i | 0.95 | · | ·
59 | CC(=O)NC(=O)NC(C)Cc1ccccc1 (stereo not drawn) | -0.4 | 104 | -2 | i | 0.95 | 0 | 147
60 | CC(C)N1CCN(Cc2cccc([N+](=O)[O-])c2)CC1 | · | 104 | -2 | i | 1 | 14 | 135

Some of the entries so far, with two lines to a compound.
Results follow in this order: GALR2 agonist | RGS16-Gao HTS | PKD1 inh | HSV augment | HSV augment primary fold | Insulin prom inh | Insulin prom inh cell count
40. CCN1C(=O)C(=Cc2cc(C)n(C3CC3)c2C)C(=O)N(CC)C1=S
 : -1.4 | 138 | -7 | i | 1.3 | -14 | 98
41. O=C(Nc1cccc(OC(=O)N2CCCCC2)c1)N1CCOCC1
 : · | 102 | -5 | i | 0.92 | 27 | 58
42. Fc1ccc2c(c1)nnn2C1CCN(Cc2nnnn2CCc2ccccc2)CC1
 : -0.5 | 32 | 3 | i | 0.92 | -17 | 132
43. COc1ccc2c(c1OC)C(=O)OC2c1c(O)n(C2CCCCC2)c(=O)[nH]c1=O (stereo not drawn)
 : -3.7 | 104 | 0 | i | 1 | 41 | 118

Next part:
cpd | SMILES | GALR2 agonist | RGS16-Gao HTS | PKD1 inh | HSV augment | HSV augment primary fold | Insulin prom inh | Insulin prom inh cell count
61 | Cc1nn(-c2ccccc2)c2c1C(c1ccc3c(c1)OCO3)SCC(=O)N2 (stereo not drawn) | -1.0 | 52 | 4 | i | 0.93 | 79* | 103*
62 | O=P1(Nc2ccc(F)cc2)COc2ccccc2OC1 | -4.3 | 110 | 0 | i | 1 | · | ·
63 | O=C(Nc1cccc(OC(=O)N2CCCCC2)c1)N1CCCCC1 | -1.4 | 93 | 5 | i | 0.92 | · | ·
64 | O=C(Cn1c(=O)n(CC2CS2)c2ccccc21)N1CCCCC1 (stereo not drawn) | · | 105 | 8 | i | 0.99 | · | ·
65 | CN1C(=O)NC(=O)/C(=C\c2ccc([N+](=O)[O-])o2)C1=O | · | 84 | -4 | i | 1.1 | · | ·
66 | C=CCn1c(O)c(C(CC)=Nc2ccccc2NC(C)=O)c(=O)[nH]c1=O | -0.6 | 102 | 3 | i | 0.93 | -295 | 77
67 | O=C(c1ccc(Cl)cc1)C1CCCN(Cc2ccc3ncccc3c2)C1 (stereo not drawn) | · | 104 | -3 | i | 1 | · | ·
68 | COCc1ccc(CN2CCCC(C(=O)c3sccc3C)C2)o1 (stereo not drawn) | · | 102 | -4 | i | 0.96 | -100 | 95
69 | C=C1C/C(=C/C)C(=O)O[C@@H]2CCN3CC=C(COC(=O)[C@]1(C)O)[C@H]23 | · | 102 | · | i | 0.93 | · | ·
70 | CC(C)C(C)(NC(=O)c1cccn(Cc2ccc3c(c2)OC(F)(F)O3)c1=O)C(N)=O (stereo not drawn) | · | 112 | 5 | i | 0.95 | -25 | 87
71 | CCCNS(=O)(=O)c1ccc(OCC(=O)N2CCN(Cc3ccc4c(c3)OCO4)CC2)cc1 | -1.9 | 104 | -5 | i | 0.79 | 16 | 137
72 | S=C1CN=C(c2ccccc2Cl)c2cc(Cl)ccc2N1 | -2.6 | 100 | -16 | · | · | -320 | 13
73 | CC[n+]1c(/C=C/C=C/c2ccc(N(C)C)cc2)sc2ccccc21 | · | 96 | · | i | 0.95 | · | ·
74 | Cc1ccccc1-n1c(O)c(/C=N/Nc2nc3c(c(=O)n(C)c(=O)n3C)n2C)c(=O)[nH]c1=S | -0.4 | 69 | 5 | i | 1.1 | · | ·
75 | COC(=O)C(O)(c1ccc2c(c1)CCCN2)C(F)(F)F (stereo not drawn) | -0.8 | 99 | -10 | i | 1.1 | · | ·
76 | Nc1c(C(=O)NCc2ccco2)c2nc3ccccc3nc2n1CCN1CCCCC1 | 7.5 | 99 | -10 | i | 0.6 | 11 | 117
77 | C=CCn1c(O)c(/C=N/N2CCOCC2)c(=O)[nH]c1=S | -0.1 | 88 | -3 | · | · | · | ·
78 | CCCCN(Cc1ccccc1)C1CCN(CCc2ccccc2)CC1 | 0.9 | 109 | -4 | i | 0.75 | 13 | 96
79 | O=C1N(c2ccccc2)C(c2cccnc2)N2CCCN12 (stereo not drawn) | · | 100 | 4 | i | 1 | · | ·
